Source: PubChem BioAssay (several laboratories)
HSV replic up = enhancers of HSV replication in host cells, fold increase, host cell viability; HSV replication augmentation in cells; maximum fold increase; 220,000 tested, 0.005% active;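 active means peak rise of 1.5-fold or more in the series; tested in PC3 cells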;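 further: first round at 10 µM; read as green reporter fluorescence; hits show the peak of a series up to 25 µM; 1 = signal of infected wells without compound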
PKD1 inh = inhibitors of human PKD1 kinase, biochemical, fluorescence polarization; Serine/threonine-protein kinase D1 (Homo sapiens), Q15139; PKD1 kinase fluorescence polarization assay; inhibition, %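 (about 10 µM by stock and volumes)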; 200,000 tested, 0.056% active;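 active means inhibition of 50% or more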;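 further: controls were vehicle for no effect and a reference inhibitor for full effect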
Insulin prom inh = inhibitors of insulin promoter-driven GFP, primary screen, imaging, TRM-6 cells (human fetal islet line), eGFP reporter, cell count | reporter expression induced with tamoxifen | inhibition, % at 2 µM | 130,000 tested, 0.9% active;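 active means inhibition above the mean plus 3 SD, with well images judged a real hit on visual review, cut at about 60% in these data, passing the limit was not always enough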
GALR2 agonist = GALR2 receptor agonists, primary screen, cell-based; Galanin receptor type 2 (Homo sapiens), O43603; GALR2-expressing cells, agonist activation read-out; activation, %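 (tested at 5 µM)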; 140,000 tested, 0.48% active;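 active means above mean plus 3 SD of all compounds, about 5% in these data, not always enough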;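 further: 0% = vehicle buffer wells and 100% = reference agonist at full effect; tested in CHO reporter cells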
Target sequence (O43603 whole entry, looked up): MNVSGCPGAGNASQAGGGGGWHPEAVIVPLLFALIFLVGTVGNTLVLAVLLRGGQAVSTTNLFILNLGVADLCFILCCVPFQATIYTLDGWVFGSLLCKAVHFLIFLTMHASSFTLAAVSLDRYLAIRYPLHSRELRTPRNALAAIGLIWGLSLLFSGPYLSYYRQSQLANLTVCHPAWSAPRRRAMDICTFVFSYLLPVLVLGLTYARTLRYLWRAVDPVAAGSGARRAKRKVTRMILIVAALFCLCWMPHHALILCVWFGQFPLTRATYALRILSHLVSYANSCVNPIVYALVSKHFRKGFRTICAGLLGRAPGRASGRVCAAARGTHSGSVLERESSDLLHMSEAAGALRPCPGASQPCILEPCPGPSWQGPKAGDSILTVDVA
RGS16-Gao = modulators of RGS16 binding to Galphao, primary screen, biochemical, human proteins, multiplexed bead flow cytometry; Regulator of G-protein signaling 16 (Homo sapiens) + Guanine nucleotide-binding protein …; 220,000 tested, 0.38% active; binding response (% of control), % at 10 µM; bead-based flow cytometry RGS16-Galphao binding, fluorescence; actives lie on both sides;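 active means below 25% or above 175%, edge rows of some plates excepted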;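 further: Galphao activated by GDP with aluminum fluoride before binding; 100% = wells without compound and 0% = beads without RGS; some results beyond the cut were filed as inactive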
Target sequence (O15492 whole entry, looked up): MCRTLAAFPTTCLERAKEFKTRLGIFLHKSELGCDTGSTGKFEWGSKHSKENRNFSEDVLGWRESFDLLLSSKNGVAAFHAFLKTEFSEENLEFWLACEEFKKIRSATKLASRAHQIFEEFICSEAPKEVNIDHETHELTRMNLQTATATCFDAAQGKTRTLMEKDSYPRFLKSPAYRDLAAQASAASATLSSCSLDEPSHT
Target sequence (P09471 whole entry, looked up): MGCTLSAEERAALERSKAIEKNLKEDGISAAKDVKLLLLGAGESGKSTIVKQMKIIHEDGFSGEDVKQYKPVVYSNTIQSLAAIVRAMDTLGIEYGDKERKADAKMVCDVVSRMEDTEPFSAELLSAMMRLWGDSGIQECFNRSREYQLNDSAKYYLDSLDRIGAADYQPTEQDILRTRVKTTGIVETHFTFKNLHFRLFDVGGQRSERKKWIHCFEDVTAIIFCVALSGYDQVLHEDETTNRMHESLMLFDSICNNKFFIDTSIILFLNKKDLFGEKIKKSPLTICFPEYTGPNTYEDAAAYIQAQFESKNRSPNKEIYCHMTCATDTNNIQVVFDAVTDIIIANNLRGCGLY
Insulin prom inh cell count = also measured in Insulin prom inh; calls as there; normalized cell count, %; measured here: cell count, toxicity; reference of the scale not given here;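 cells exposed to compound for 48 h; stained nuclei by imaging scaled within each plate; lower means fewer cells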
HSV replic up primary fold = second read-out of HSV replic up, no call of its own (marks repeat the call); fold increase; compound at 10 µM; measured here: primary screen fold increase 10 uM; tested in PC3 cells;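 GFP signal in the first replicate; 1 = infected wells without compound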
Starred values were filed as active, the others as inactive; i = inactive; . = no result given.

Short forms – A = HSV replic up; B = HSV replic up primary fold; C = PKD1 inh; D = Insulin prom inh; E = Insulin prom inh cell count; F = GALR2 agonist; G = RGS16-Gao
> C/C(=N\OC(=O)c1c(-c2ccccc2Cl)noc1C)c1ccncc1
  A: i	B: 0.98	C: -7.3	D: -14.3	E: 73.9	F: .	G: 101.1
> CCCCCn1nc(C)c2c(C)cc(=O)[nH]c21
  A: i	B: 1.15	C: -1.0	D: -315.0	E: 61.0	F: -1.0	G: 105.2
> CC(C)Cc1cc(C(=O)N2CCN(c3ccc(F)cc3)CC2)no1
  A: i	B: 0.92	C: -8.4	D: .	E: .	F: -1.6	G: 82.5
> COc1ccc(OC)c(NC2=C(Cl)C(=O)N(Cc3ccccc3)C2=O)c1
  A: i	B: 0.68	C: -3.2	D: .	E: .	F: .	G: 99.8
> CN1CCc2c(sc(NC(=O)c3ccc(S(=O)(=O)N4CCOCC4)cc3)c2C(N)=O)C1
  A: i	B: 1.24	C: 5.0	D: 57.1	E: 80.0	F: -0.5	G: 96.1
> O=[N+]([O-])c1cccc(-c2nnn(C34CC5CC(CC(C5)C3)C4)n2)c1
  A: i	B: 0.94	C: -11.9	D: -30.0	E: 103.7	F: -2.7	G: 95.5
> CCc1cccc(NC(=O)C2CCCC2)c1
  A: i	B: 0.74	C: -3.3	D: 5.4	E: 71.8	F: -0.9	G: 100.3
> CCOC(=O)/C=C1\NC(=O)C(C)S1 (stereo not given)
  A: i	B: 0.85	C: 0.7	D: 4.2	E: 102.1	F: -0.5	G: 104.2
> COc1cc(C)c(Cl)c(C)c1S(=O)(=O)NCc1ccc2c(c1)OCO2
  A: i	B: 0.827	C: -7.8	D: 20.0	E: 117.8	F: -2.9	G: 102.5
> CN(Cc1ccccc1)CC(O)COc1ccc(CNCCc2cccnc2)cc1 (stereo not given)
  A: i	B: 0.9	C: 4.2	D: .	E: .	F: .	G: 92.4
> Cc1cc(C)n(CCOc2ccc(Cl)cc2Cl)n1
  A: i	B: 0.88	C: 9.2	D: 63.6	E: 106.4	F: -0.3	G: 100.7
> COc1ccc(OC)c(S(=O)(=O)N2C(C)CCCC2C)c1 (stereo not given)
  A: i	B: 0.937	C: 0.0	D: 0.0	E: 113.1	F: 0.8	G: 109.2
> COCCn1c(=O)sc2ccccc2c1=O
  A: i	B: 1.1	C: -5.2	D: 18.2	E: 91.2	F: .	G: 102.8
> Cc1ccccc1NC(=S)NC(=O)c1cncc(Br)c1
  A: i	B: 0.89	C: 1.7	D: 26.5	E: 116.0	F: -1.5	G: 93.7
> CCn1ncc(C(=O)Nc2cccc(Cl)c2)c1C
  A: i	B: 0.91	C: 8.9	D: 7.7	E: 48.4	F: -1.1	G: 108.3
> COc1cccc(/C=N/NC(=O)CCn2c3ccccc3c3ccccc32)c1
  A: i	B: 0.88	C: -3.1	D: .	E: .	F: -1.2	G: 105.0
> COc1ccc2ccccc2c1CNC(=O)CC1C(=O)NCCN1CC(C)(C)C (stereo not given)
  A: i	B: 1.09	C: .	D: .	E: .	F: .	G: 97.5
> COc1cccc(-c2noc(CCC(=O)Nc3cccnc3)n2)c1
  A: i	B: 0.89	C: -6.2	D: 40.0	E: 84.5	F: -0.6	G: 95.4
> Cn1cc(/C=C/c2nc3ccccc3c(=O)n2-c2cccc([N+](=O)[O-])c2)c2ccccc21
  A: i	B: 0.99	C: -2.8	D: 9.1	E: 110.8	F: -1.1	G: 100.6
> CCN(CC)Cc1ccc(NC(=O)c2sc3cc(Cl)ccc3c2Cl)cc1
  A: i	B: 0.61	C: .	D: .	E: .	F: .	G: 97.3

Full records, looked up by structure. Order of values: HSV replic up | HSV replic up primary fold | PKD1 inh | Insulin prom inh | Insulin prom inh cell count | GALR2 agonist | RGS16-Gao
Cc1cc(C)n(CCOc2ccc(Cl)cc2Cl)n1 as listed: i | 0.88 | 9.2 | 63.6 | 106.4 | -0.3 | 100.7
Cc1ccccc1NC(=S)NC(=O)c1cncc(Br)c1 as listed: i | 0.89 | 1.7 | 26.5 | 116.0 | -1.5 | 93.7
COc1cccc(/C=N/NC(=O)CCn2c3ccccc3c3ccccc32)c1 as listed: i | 0.88 | -3.1 | . | . | -1.2 | 105.0
COCCn1c(=O)sc2ccccc2c1=O as listed: i | 1.1 | -5.2 | 18.2 | 91.2 | . | 102.8
CCn1ncc(C(=O)Nc2cccc(Cl)c2)c1C as listed: i | 0.91 | 8.9 | 7.7 | 48.4 | -1.1 | 108.3

(more compounds)
Short forms – A = HSV replic up; B = HSV replic up primary fold; C = PKD1 inh; D = Insulin prom inh; E = Insulin prom inh cell count; F = GALR2 agonist; G = RGS16-Gao
> CC(Oc1cccc(Cl)c1)c1ccnc2nc(/N=C/N(C)C)nn12 (stereo not given)
  A: i	B: 1.01	C: -3.7	D: -94.1	E: 93.6	F: .	G: 105.1
> COc1ccc(N2CCN(C(=O)c3ccc(-n4nc(C)cc4C)cc3)CC2)cc1
  A: i	B: 0.7	C: -6.8	D: 41.3	E: 93.7	F: 1.0	G: 101.0
> COc1cc(/C=N/O)ccc1OCc1ccc([N+](=O)[O-])cc1
  A: i	B: 0.85	C: -15.6	D: 63.0	E: 96.2	F: -0.2	G: 97.4
> O=C(CC1S/C(=N/N=C/c2cccs2)NC1=O)Nc1ccccc1F (stereo not given)
  A: i	B: 0.87	C: -5.4	D: .	E: .	F: .	G: 102.1
> COC(=O)NC(=S)Nc1ccc(Oc2ccc(Cl)cc2)c(Cl)c1
  A: i	B: 0.78	C: 1.4	D: .	E: .	F: -1.0	G: 102.6
> c1ccc(-c2noc(C3CCCCC3)n2)nc1
  A: i	B: 0.86	C: -4.6	D: 0.0	E: 196.4	F: -2.6	G: 99.9
> Cc1ccc(-c2nnn(CC(=O)N(c3ccc4c(c3)OCCO4)C(C(=O)NCC3CCCO3)c3ccc(F)cc3)n2)o1 (stereo not given)
  A: i	B: 1.02	C: -0.6	D: 63.6	E: 73.0	F: .	G: 92.3
> COc1ccc(C=C2c3ccccc3C(=O)c3ccccc32)c(OC)c1
  A: i	B: 0.71	C: .	D: .	E: .	F: .	G: 91.1
> COc1cc(C2=NOC(C(=O)N3CCN(c4ccc(F)cc4)CC3)C2)cc(OC)c1OC (stereo not given)
  A: i	B: 0.64	C: 18.2	D: .	E: .	F: -1.5	G: 105.8
> CC(=C\c1ccccc1)/C=C1/SC(=S)N(C(C(=O)O)C(C)C)C1=O (stereo not given)
  A: i	B: 1.04	C: -10.5	D: .	E: .	F: .	G: 100.0
> Cc1[nH]n(-c2ccccc2)c(=O)c1/C=N/c1nn[nH]n1
  A: i	B: 0.97	C: -0.2	D: -21.4	E: 98.0	F: .	G: 1.6
> COc1cccc(C2CC(c3ccccc3Cl)n3ncnc3N2)c1 (stereo not given)
  A: i	B: 1.12	C: -8.8	D: 57.9	E: 125.4	F: -1.7	G: 93.8
> CN1CCN(c2nc3nonc3nc2N2CCN(C)CC2)CC1
  A: i	B: 1.24	C: -4.0	D: 42.9	E: 130.8	F: -1.8	G: 104.0
> CCc1cccc(NC(=O)CCc2nc(-c3cccs3)no2)c1
  A: i	B: 0.87	C: -15.3	D: .	E: .	F: -1.1	G: 100.5
> CCOC(=O)N1CCN(C(=O)C2c3cc(OC)c(OC)cc3C(=O)N3CCc4ccccc4C23)CC1 (stereo not given)
  A: i	B: 0.78	C: 2.0	D: 80.0*	E: 130.1*	F: -0.9	G: 115.6
> COc1ccc(S(=O)(=O)Nc2ccncc2)c(C)c1C
  A: i	B: 0.96	C: -4.2	D: .	E: .	F: .	G: 108.8
> Cc1ccc(S(=O)(=O)C(C#N)c2nc3ccccc3nc2N2CC(C)OC(C)C2)cc1C (stereo not given)
  A: i	B: 0.94	C: 4.5	D: 50.0	E: 69.7	F: -1.3	G: 89.6
> CN(C)C(=N)c1n[nH]nc1SCc1ccc(Cl)c(Cl)c1
  A: i	B: 1.36	C: -7.0	D: -16.7	E: 90.1	F: .	G: 101.1
> COc1cc(NC(=S)NC(=O)c2ccco2)ccc1NC(=O)C(C)C
  A: i	B: 0.58	C: -4.4	D: .	E: .	F: .	G: 96.0
> O=C(O)c1cnn2c(C(F)F)cc(C(F)F)nc12
  A: i	B: 0.85	C: 4.0	D: 50.0	E: 120.1	F: -1.2	G: 95.2
> CCCCC(=O)Nc1ccc(C(=O)Nc2ccc(S(=O)(=O)Nc3ccc(C)cc3)cc2)cc1
  A: i	B: 0.7	C: -1.0	D: 36.7	E: 123.5	F: 1.0	G: 56.4
> CCOC(=O)C1(Cc2cccc(F)c2)CCN(C2CCOCC2)CC1
  A: i	B: 0.94	C: 2.4	D: .	E: .	F: .	G: 101.0
> CS(=O)(=O)c1cnc2c(-c3ccc(F)cc3)cnn2c1N
  A: i	B: 0.91	C: -9.2	D: .	E: .	F: 0.0	G: 101.5
> COc1ccc(CC(=O)NNC2=Nc3cccc4cccc2c34)cc1
  A: i	B: 0.73	C: .	D: .	E: .	F: .	G: 101.2
> Cc1ccc(S(=O)(=O)N(C)C)cc1NC(=O)COC(=O)/C(=C/c1ccc(F)cc1)c1cccs1
  A: i	B: 0.69	C: -0.9	D: 64.3*	E: 106.2*	F: -1.3	G: 105.5
> CCCCSc1nc(C)c(CC(=O)OC)c(=O)[nH]1
  A: i	B: 0.76	C: -6.1	D: .	E: .	F: -0.1	G: 102.6
> Clc1ccc(-c2cn3nc4c(nc3n2)CCCC4)cc1
  A: i	B: 0.93	C: -8.2	D: -29.2	E: 90.1	F: 5.7	G: 97.2
> CS(=O)(=O)N(CCc1ccccc1)CC(=O)N1CCN(c2ccc(F)cc2)CC1
  A: i	B: 0.877	C: 0.0	D: -69.2	E: 93.0	F: -1.9	G: 108.2
> O=C(CCNC(=O)c1ccccc1Cl)Nc1cc(S(=O)(=O)N2CCOCC2)ccc1N1CCCC1
  A: i	B: 0.96	C: .	D: .	E: .	F: .	G: 100.5
> Cn1c(=O)c2c(nc(CN3CCN(c4ccccc4)CC3)n2CCc2ccccc2)n(C)c1=O
  A: i	B: 1.02	C: 1.9	D: 0.0	E: 105.3	F: -1.9	G: .
> CC(C)Oc1ccc(-c2cc(C(=O)NCCN3CCOCC3)c3ccccc3n2)cc1
  A: i	B: 1.03	C: -5.1	D: 38.5	E: 115.2	F: -0.1	G: 109.4
> CCOc1cc(C(=O)Nc2cc(C)on2)cc(OCC)c1OCC
  A: i	B: 0.93	C: -1.8	D: -30.6	E: 243.3	F: -0.3	G: 55.0
> Cn1cnnc1SC1CCCCC1NS(=O)(=O)c1ccccc1 (stereo not given)
  A: i	B: 0.74	C: 3.9	D: -11.6	E: 100.0	F: -3.4	G: 103.9
> CCCc1cc2c(=O)c(-c3ccc4c(c3)OCCO4)coc2cc1OS(C)(=O)=O
  A: i	B: 0.72	C: -3.4	D: -3.7	E: 151.3	F: -0.8	G: 103.2
> COC(=O)c1nc2ccccc2s1
  A: i	B: 1	C: 3.4	D: -11.1	E: 102.8	F: -2.4	G: 103.0
> CCOC(=O)c1cc(C#N)c(SCC(=O)OC)[nH]c1=O
  A: i	B: 1.18	C: .	D: .	E: .	F: .	G: 97.5
> CC(=C/c1ccc(C(C)C)cc1)/C=N/NC(=O)CSc1ccccn1
  A: i	B: 0.91	C: -3.8	D: -3.1	E: 142.0	F: 0.1	G: 104.6
> CCOC(=O)C[N+](C)(C)CCOC1CC2CCC1(C)C2(C)C (stereo not given)
  A: i	B: 1.02	C: -5.4	D: .	E: .	F: .	G: 103.6
> COc1cccc(-c2nnc(NC(=O)c3ccc(S(=O)(=O)N4CC(C)OC(C)C4)cc3)o2)c1 (stereo not given)
  A: .	B: .	C: -0.9	D: .	E: .	F: -0.3	G: 103.2
> CN(Cc1ccco1)C(=O)C1CCC(=O)N1Cc1ccc(F)cc1 (stereo not given)
  A: i	B: 0.947	C: 1.5	D: .	E: .	F: -0.3	G: 89.3
> Cc1ccccc1NC(=O)CSc1n[nH]c(-c2ccco2)n1
  A: i	B: 1.02	C: -7.4	D: 26.7	E: 63.6	F: .	G: 169.3
> CCn1nc(C(=O)OCc2c(C)noc2C)c2ccccc2c1=O
  A: i	B: 1.08	C: 5.4	D: .	E: .	F: 0.0	G: 99.5
> O=c1oc2ccccc2cc1-c1csc(Nc2nc3c(F)cccc3s2)n1
  A: i	B: 1.14	C: -0.9	D: -20.0	E: 69.0	F: -1.5	G: 107.4
> Cc1ccc(NC(=O)c2ccc3c(c2)nnn3C)cc1
  A: i	B: 0.98	C: -4.1	D: -76.9	E: 107.0	F: 0.4	G: 104.7
